Source: PubChem BioAssay (several laboratories)
CSC inhib: cancer stem cell inhibition; cancer stem cell-like cells viability, luminescence; inhibition, % at 7.5 µM; 300,000 tested, 1.1% active; AID 2717;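 active = mean at 75% or more and at least half the replicates too; tested in HMLE shEcad cells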;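 also: 0% = median of negative and 100% = median of positive control wells; the first replicate is given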
HIV Env fusion: HIV envelope-mediated fusion inhibition; HeLa-JRFL Env/CEM21 cell fusion, luciferase; inhibition, % at 12.3 µM; 360,000 tested, 1.1% active;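 active = mean replicate inhibition score of at least 50 and every replicate individually at or above 50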;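 also: 0% = plate neutral controls and 100% = maraviroc near 300 nM; one replicate is shown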
PABP FP inh: blocks human PABP binding to poly(A) RNA. fluorescence polarization. inhibition, % at 35 µM. 290,000 tested, 1% active. AID 2014;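 active = 50% or more with normal probe brightness, or confirmed in later tests; about a fifth of its hits are not listed in these tables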;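 also: calls also rest on retests at 20 µM and on dose response follow-up; controls were probe without protein and protein plus probe with vehicle; some compounds called inactive have numbers as strong as hits; many hits fall short of the cut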
Target sequence (P11940 whole entry, looked up): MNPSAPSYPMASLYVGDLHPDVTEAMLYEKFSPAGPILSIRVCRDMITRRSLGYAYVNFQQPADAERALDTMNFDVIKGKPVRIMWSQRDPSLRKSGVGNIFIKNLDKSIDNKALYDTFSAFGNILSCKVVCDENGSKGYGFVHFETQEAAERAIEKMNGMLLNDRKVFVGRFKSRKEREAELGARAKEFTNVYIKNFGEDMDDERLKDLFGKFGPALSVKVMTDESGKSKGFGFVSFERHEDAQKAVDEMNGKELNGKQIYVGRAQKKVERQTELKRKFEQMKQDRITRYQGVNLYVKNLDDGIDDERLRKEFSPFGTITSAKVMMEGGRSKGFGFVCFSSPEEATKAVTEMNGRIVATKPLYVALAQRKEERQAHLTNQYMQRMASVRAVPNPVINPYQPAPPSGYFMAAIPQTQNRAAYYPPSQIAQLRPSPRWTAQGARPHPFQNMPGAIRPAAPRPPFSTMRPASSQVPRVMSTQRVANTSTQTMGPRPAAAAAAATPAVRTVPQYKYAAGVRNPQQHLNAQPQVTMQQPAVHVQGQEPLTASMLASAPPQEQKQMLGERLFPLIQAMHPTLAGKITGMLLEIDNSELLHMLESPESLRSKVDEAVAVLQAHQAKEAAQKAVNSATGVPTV
MT1-MMP act inh: blocks activation of human MT1-MMP; GFP/RFP ratio change, % at 20 µM; 360,000 tested, 0.061% active; HT1080 RFP-PRO-GFP cells, GFP/RFP ratio fluorescence, overnight; percent of plate control window, DMSO zero; AID 651647; P50281;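 active = GFP/RFP ratio change of at least 30% with cell ATP level not reduced by more than half and red fluorescence within 50% of control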; also: strong numbers were not always called active
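Material – HT1080 RFP-PRO-GFP cells · Control set – DMSO wells and RFP-L50D-GFP cells · Incubation – overnight cell settling, then overnight compound exposure, 37 °C, 5% CO2 · Compound dosing – single-point 20 µM compound, 1% DMSO · Read-out – GFP/RFP fluorescence ratio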
eIF4H FP inh: inhibitors of RNA binding by human eIF4H | Q15056 | eIF4H fluorescence polarization binding assay | inhibition, % at 35 µM | 290,000 tested, 0.94% active;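 active = 50% or more with normal probe brightness, or confirmed in later tests; about a fifth of its hits are not listed in these tables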;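 also: calls also rest on retests at 20 µM and on dose response follow-up; 0% = protein and probe with vehicle and 100% = probe without protein; strong numbers were not always called active; many hits fall short of the cut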
Rce1 inhib: yeast Ras-converting enzyme inhibition; Q03530; yeast membranes, quenched prenylated peptide cleavage fluorescence; calls only; 290,000 tested, 0.27% active;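 active = fall in fluorescence gain of 50% or more versus controls, with final raw signal at or below 3038400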;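 also: plate controls were neutral control wells for no effect and wells lacking membranes for full effect; tested at 10 µM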
Yeast UUG start: alters start codon recognition fidelity in yeast; activity score, % at 18.7 µM; AID 602363; S. cerevisiae UUG-firefly luciferase reporter, luminescence/redox ratio; 350,000 tested, 0.13% active;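 active = replicate mean at a twofold rise or more, about +100% in these data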;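 also: firefly luciferase made from a UUG start codon reports start codon fidelity; reporter light over untreated wells divided by growth signal over untreated wells; some hits fall short of that in this replicate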
eIF4H FP inh retest: second read-out of eIF4H FP inh, no call of its own (marks repeat the call); inhibition, %; compound at 20 µM; confirmation average;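 mean of two retest wells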
PABP FP inh retest: also measured in PABP FP inh; calls as there; inhibition, %; compound at 20 µM; confirmation repeats;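 mean of two retest wells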
MT1-MMP act inh RFP: second read-out of MT1-MMP act inh, no call of its own (marks repeat the call); RFP signal change, %; measured here: RFP expression control read;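 0 = vehicle wells; hits needed this value within 50% of zero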
* = called active by the depositor; i = inactive; · = no result given; + = active, no number. Some of the compounds tested; rates above refer to the full screens.

SMILES	CSC inhib	HIV Env fusion	PABP FP inh	MT1-MMP act inh	MT1-MMP act inh RFP	eIF4H FP inh	Rce1 inhib	Yeast UUG start	others
Cc1ccc(OCC(=O)Nc2cccc3c2CCCC3)cc1C	-13	18	·	-6	-5	·	i	-24
NC(=O)c1ccsc1NC(=O)CSc1nnc(NC2CC2)s1	-24	-4	·	3	3	·	·	-17
Cc1ccc(-c2nc(-c3cccnc3)no2)cc1	10	·	-4	-2	-1	-2	i	-36
O=C(NC(=O)N1CCCC1)c1csnn1	10	-4	-6	-1	2	-2	i	·
Cc1cc2c(c(N3CCOCC3)n1)C(=O)OC2	-8	·	2	0	0	1	i	·
O=C1c2ccccc2COc2ccc(O)cc21	9	-179	34	-1	5	51*	i	-4	eIF4H FP inh retest=85*;PABP FP inh retest=46
CCCNC(=O)COC(=O)c1ccccc1C(=O)c1ccc(Cl)c([N+](=O)[O-])c1	-7	-44	9	-11	-23	-1	i	·
O=C(c1cn(-c2ccccc2)nc1-c1cccs1)N1CCN(c2ccccn2)CC1	10	-261	-4	4	-2	6	+	-4
Cc1ccc(/C=N/NC(=O)c2ccco2)cc1	0	-88	6	0	2	3	i	-25
O=Cc1ccc2noc(-c3ccc(Cl)cc3)c2c1	29	·	10	-9	4	2	i	-14
CCOc1cc(CNn2cnnc2)cc(Br)c1OCC(=O)NC(C)(C)C	-2	-3	7	-1	-3	-1	i	-11
COc1cccc(CNC(=O)CCNS(=O)(=O)c2ccc(C)cc2)c1	-13	-4	·	0	2	·	i	27
c1ccc(-c2ccc3[nH]ccc3c2)cc1	-4	-64	·	2	3	·	·	-15
CCOC(=O)N1CCC(C(=O)Nc2ccc(OCC)cc2)CC1	-3	12	6	-3	4	-2	i	-2
O=C(CNC(=O)c1ccc(Br)o1)NNC(=O)c1ccc(Br)cc1	10	·	·	0	6	·	·	-12

Two records drawn at random from the list so far, as already listed:
SMILES	CSC inhib	HIV Env fusion	PABP FP inh	MT1-MMP act inh	MT1-MMP act inh RFP	eIF4H FP inh	Rce1 inhib	Yeast UUG start	others
CCCNC(=O)COC(=O)c1ccccc1C(=O)c1ccc(Cl)c([N+](=O)[O-])c1	-7	-44	9	-11	-23	-1	i	·
CCOc1cc(CNn2cnnc2)cc(Br)c1OCC(=O)NC(C)(C)C	-2	-3	7	-1	-3	-1	i	-11

Remaining list, next part.
SMILES	CSC inhib	HIV Env fusion	PABP FP inh	MT1-MMP act inh	MT1-MMP act inh RFP	eIF4H FP inh	Rce1 inhib	Yeast UUG start	others
CCOC(=O)C1=C(C)NC(=S)NC1/C=C/c1ccccc1 (centres undefined)	-9	16	2	-4	-7	-10	i	5
Cc1ccc2c(CC(=O)N3CCN(c4ccccc4)CC3)coc2c1	·	17	29	2	-1	-4	i	-10
CC(NC(=O)COc1ccccc1)C(=O)NCc1ccccc1Cl (centres undefined)	-3	-1	·	2	1	·	·	-6
Cc1ccc(-c2csc(NC(=O)c3ccc(-c4ccccc4)cc3)n2)o1	24	·	12	3	-29	-8	i	-22
C/C(N)=C(/C#N)C(=O)COC(=O)c1cc2c(s1)CCCC2	1	-6	-9	3	4	10	·	·
CC(C)N1C(=O)CCC1C(=O)NCc1ccccc1Cl (centres undefined)	7	1	4	-1	-1	-1	i	-13
COc1ccccc1-c1cnn2c(N3CCOCC3)cc(C)nc12	-5	-36	8	2	3	-7	i	-6
COc1ccc(NC(=O)c2ccccc2S(=O)c2ccccc2C#N)cc1 (centres undefined)	-6	6	5	1	3	4	i	·
CC1CCC(NC(=O)C2CCC(CNS(=O)(=O)c3cccc4cccnc34)CC2)CC1 (centres undefined)	-9	-5	0	4	1	-7	i	-10
O=[N+]([O-])c1ccc(/C=C/C2=NN(c3ccccc3)C(c3ccco3)C2)cc1 (centres undefined)	30	·	-4	-12	66	23	·	-7
CC1(c2nnc(-c3cccc(Cl)c3)o2)CC(c2ccc(OC(F)(F)F)cc2)=NO1 (centres undefined)	26	24	13	0	-3	-11	i	-13
N#Cc1ccc(CN2CCN(C(=O)CN3C(=O)NC4(CCCC4)C3=O)CC2)cc1	·	34	·	1	-18	·	·	1
CCc1ccc(C(=O)CSc2ncn[nH]2)cc1	·	-52	10	0	-3	-6	i	-20
O=C(Nc1cccc(NC(=O)N2CCN(c3ccccc3)CC2)c1)N1CCN(c2ccccc2)CC1	18	·	-14	-2	-6	-11	i	16
CCC1S/C(=N/N=C/c2ccco2)N(Cc2ccc(F)cc2)C1=O (centres undefined)	-11	12	6	-1	-7	-2	i	12
Cc1cc(C)c(S(=O)(=O)Nc2ccccc2C(=O)OCC(=O)NCc2ccccc2)c(C)c1	12	5	-2	1	-9	6	i	·
Cc1cc(/C=C(\C#N)C(=O)Nc2ccccc2)c(C)n1-c1ccc(C(=O)O)cc1	23	8	30	-3	0	39	i	-6
CCCCOc1ccc(C(=O)NCC(=O)NCC2CCCO2)cc1 (centres undefined)	-6	-9	-3	4	5	-8	i	-13
CC(C)C(=O)Nc1nnc(SCC(=O)NCc2cccs2)s1	1	-25	0	2	4	8	i	-7
NC(=O)c1ccc(NC(=O)CCN=C2NS(=O)(=O)c3ccccc32)cc1	-5	0	·	-2	1	·	i	·
Cc1sc2ncnc(SCC(=O)NNC(=O)COc3cccc4ccccc34)c2c1C	16	7	2	-2	-4	-1	i	-17
NS(=O)(=O)c1ccc(C(=O)Nc2ccc(-c3nc4cccnc4s3)cc2)cc1	-1	2	-10	6	3	5	i	-14
COc1cccc(S(=O)(=O)N2CCOCC2)c1	-12	-54	6	5	2	-1	i	-18
C=CCOc1ccc(CN(C)CC(O)COc2ccc(CCC(C)=O)cc2)cc1 (centres undefined)	1	-20	2	-2	-3	11	i	-5
O=C(O)CCSc1nnc(SCC(=O)NC2CCS(=O)(=O)C2)s1 (centres undefined)	-10	3	·	1	3	·	·	-21
Cc1c(C(=O)NCc2ccco2)oc2ccccc12	·	-1	10	0	-1	5	i	-12
Cn1cc(CC(=O)N2CCN(c3ccccc3F)CC2)c2ccccc21	-11	-13	2	1	-2	-3	i	-33
CCc1ccc(OCCCCN(C)Cc2ccccc2)cc1	·	52	4	12	7	17	i	-3
CN(C)c1ccc(C2CC(=O)OC3=C2C(=O)CC(C)(C)C3)cc1 (centres undefined)	-17	-5	2	-3	2	-7	i	·
O=C(CSc1ccc(Cl)cc1)N1CCN(c2c(Cl)cccc2[N+](=O)[O-])CC1	31	·	-2	-6	-19	2	i	-24
O=C(c1ccc(F)cc1)C1CCN(C(=O)NCc2ccccc2)CC1	-5	·	8	6	-2	-2	i	19
CCOc1ccccc1N1CCN(C(=O)c2cn(CC3CCCCC3)nn2)CC1	5	·	-6	4	-2	-13	i	19
Cc1ccc(-c2csc3ncn(CC#N)c(=O)c23)cc1C	6	-72	34*	1	4	54*	i	-15	eIF4H FP inh retest=78*;PABP FP inh retest=70*
CCn1cc(CNC(=O)C2CCC(=O)N(Cc3ccccc3F)C2)cn1 (centres undefined)	2	2	6	0	5	1	i	-13
COc1ccc(C(=O)N/C(=C\c2ccccc2)C(=O)Nc2ccc(C(=O)O)cc2)cc1	-14	-1	5	-4	0	3	i	8
O=[N+]([O-])c1cccc(S(=O)(=O)N2CCCCCC2)c1	-3	9	-2	5	8	-8	i	-9
CCOC(=O)C(=CNc1cc(C)ccc1C)C(=O)OCC	-6	9	-2	-5	-4	11	i	-3
O=C(CN(c1ccccc1F)S(=O)(=O)c1ccccc1)N1CCCCCC1	-24	-49	4	4	3	-3	i	-11
CCn1c(C)nc2cc(S(=O)(=O)N3CCCC3)ccc21	15	·	1	1	-2	-2	·	-14
COc1ccc(C(=O)NCC(C)CN(C)C)cc1 (centres undefined)	-6	·	15	1	2	10	i	-18
CSc1nc2ccccc2s1	1	·	21	1	2	4	i	20
O=S(=O)(c1cccc(S(=O)(=O)N2CCOCC2)c1)N1CCCCCC1	0	3	-10	0	2	-2	i	1
CCOC(=O)c1cc(NC(=O)c2cccnc2)cc(C(=O)OCC)c1	-4	-9	8	0	-1	-4	i	·
CN(C(=O)c1cc(-c2ccccc2)on1)C1CCCCC1	9	-67	2	-2	-1	3	i	-6
O=C(NCCc1ccccc1)c1cccc(S(=O)(=O)NCc2ccccc2)c1	-19	24	·	2	3	·	i	-30

An excerpt from the list above, as a working copy:
SMILES	CSC inhib	HIV Env fusion	PABP FP inh	MT1-MMP act inh	MT1-MMP act inh RFP	eIF4H FP inh	Rce1 inhib	Yeast UUG start	others
CCOC(=O)C(=CNc1cc(C)ccc1C)C(=O)OCC	-6	9	-2	-5	-4	11	i	-3
O=C(CN(c1ccccc1F)S(=O)(=O)c1ccccc1)N1CCCCCC1	-24	-49	4	4	3	-3	i	-11
CCn1c(C)nc2cc(S(=O)(=O)N3CCCC3)ccc21	15	·	1	1	-2	-2	·	-14
COc1ccc(C(=O)NCC(C)CN(C)C)cc1 (centres undefined)	-6	·	15	1	2	10	i	-18
CSc1nc2ccccc2s1	1	·	21	1	2	4	i	20
O=S(=O)(c1cccc(S(=O)(=O)N2CCOCC2)c1)N1CCCCCC1	0	3	-10	0	2	-2	i	1

Later entries:
SMILES	CSC inhib	HIV Env fusion	PABP FP inh	MT1-MMP act inh	MT1-MMP act inh RFP	eIF4H FP inh	Rce1 inhib	Yeast UUG start	others
O=C1c2cccc3cccc(c23)C(=O)N1CC1CCN(CC(O)COc2ccc3ccccc3c2)CC1 (centres undefined)	103*	-5	·	6	-20	·	i	-11
COc1ccc(Cl)cc1-c1nc(SCC(=O)N(C)C)n[nH]1	8	-6	-5	3	0	3	i	·
O=C(NCc1ccc(Cl)s1)C1CCC(=O)N(CCc2cccc(F)c2)C1 (centres undefined)	-7	3	-6	2	3	-21	i	-11
CN(C)CCCn1c2c(c(SCC(=O)Nc3ccc4c(c3)OCO4)nc1=O)CCCC2	7	3	·	0	5	·	i	3
CC(=O)c1cccc(NC(=O)CN2C=NS(=O)(=O)c3ccc(C)cc32)c1	-6	-3	5	0	2	3	i	-9
COc1cccc(-n2c(O)c(C=NCc3ccccn3)c3ccccc3c2=O)c1	-4	3	-9	-5	0	-1	i	·
CCc1ccc2nc(/N=C(\N)NC(=O)c3ccccc3)nc(C)c2c1	11	6	-1	6	6	5	i	-3
Cc1c(NC(=S)NC(NC(=O)C(C)C)C(Cl)(Cl)Cl)c(=O)n(-c2ccccc2)n1C (centres undefined)	-6	-10	11	1	6	-2	i	-11
CCN(C(=O)COC(=O)c1c(C)c(-c2ccccc2)nc2ccccc12)C1CCS(=O)(=O)C1 (centres undefined)	-2	-1	-9	2	0	2	i	25
Oc1ccc(N=Nc2ccc3c(c2)OCCO3)c2cccnc12	·	-72	6	12	-19	13	i	·
CN(C)C(=O)CCSc1nnc(-c2ccncc2)o1	-14	6	-3	1	4	4	i	-14
CCCn1c(C)cc(C(=O)COC(=O)c2ccc(Cl)c(S(=O)(=O)N3CCCC3)c2)c1C	-8	·	4	0	2	-4	i	-9
C=CCSc1nc2sc3c(c2c(=O)[nH]1)CCC3	2	-6	-2	-1	-1	-12	i	-11
COc1ccc(/C=N/Nc2nc3ccccc3s2)cc1O	·	-200	-4	9	-5	-7	i	·
Clc1ccc(-c2cn3cccnc3n2)cc1	7	·	4	0	2	2	i	·
CCOC(=O)C#CC(CCc1ccccc1)OS(N)(=O)=O (centres undefined)	2	3	-4	3	4	-8	i	-12
Cc1nn(Cc2ccccc2)c(C)c1NC(=O)CCC(=O)O	-36	·	4	4	3	-5	i	-9
C=CCn1cccc(/C=C/C(=O)c2ccc(C(C)(C)C)cc2)c1=S	111*	6	-8	-3	-13	38	i	·
CCn1c(CC(=O)Nc2ccc(C)c(Cl)c2)nnc1SCc1ccc(Cl)c(Cl)c1	-8	·	-5	11	5	-8	i	-3
CCOc1ccc(OCCC(=O)Nc2cccc(S(=O)(=O)N3CCCC3)c2)cc1	·	28	·	4	-11	·	·	-14
